UCH37 inh – inhibitors of human UCH37 deubiquitinase, primary screen, biochemical, Ub-AMC cleavage, fluorescence; inhibition, % (test concentration not listed); purified proteasome/UCH37; 0.33% of 330,000 active; AID 588478, 2011;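 active = mean of two replicates above 20%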;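 note: 0% = compound-free wells with enzyme and 100% = wells lacking proteasome; stock transfer was 100 nL into about 20 µL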
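Assay system: Proteasome-bound UCH37. Buffer or medium: pH 7.4 Tris-HCl (50 mM) with ovalbumin, ATP-MgCl2, DTT. Incubation: 30 min preincubation with enzyme, 25 min cleavage at room temperature. Measured by: fluorescence, ex 355 nm, em 460 nm. Read-out basis: percent inhibition. Control set: wells without proteasome as full block, compound-free enzyme plus substrate as uninhibited.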
HNF4A DNA FP – change in binding of human HNF4A to DNA, primary screen, biochemical, fluorescence polarization, FITC-DNA; activity change, % at 10 µM; AID 1224865, 2016; 1 h; 0.3% of 360,000 active; in the data active = activity change above about 30%, passing the limit was not always enough;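 note: controls were the assay level and a saturating level of protein; the project sought stronger binding though the title names inhibitors; some compounds called inactive have numbers as strong as hits; positive values seem to mean higher polarization but the record does not say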
A1 inh – caspase 3/7 activation in MEF A1-2A-BIM cells, primary screen, A1 inhibitor project, cell-based, luminescence, HTS. AID 2462, 2010. 0.066% of 330,000 active. Caspase-Glo 3/7 luminescence, 3 h; percent of clofoctol response, vehicle zero. caspase activation, % (concentration not given with the values);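 active = over half of replicate activation scores above 10%, or exactly half above 10 with the replicate mean above 10; inconclusive = replicate mean below 10 yet half the replicates above 10; inactive = over half of replicates below 10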;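 note: wells of about 30 µL received 50 nL stock; many hits fall short of the cut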
LANA-H2A inh – blockers of LANA interaction with H2A/H2B – biochemical, FP readout, HTS, primary screen | Protein LANA1 (Human herpesvirus 8 type P (isolate GK18)), Q9QR71 | cell-free LANA-H2A/H2B peptide, fluorescence polarization | inhibition, % (test concentration not listed) | 0.6% of 320,000 active; in the data active = inhibition mostly above about 10%, no sharp cut-off; inactive = mostly below about 6.7%;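 note: stock transfer was 7.5 nL into about 10 µL; 0% = median of vehicle wells and 100% = median of positive control wells; one replicate is shown; the record names a cut of 25% in any replicate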
Target sequence (Q9QR71 whole entry, looked up): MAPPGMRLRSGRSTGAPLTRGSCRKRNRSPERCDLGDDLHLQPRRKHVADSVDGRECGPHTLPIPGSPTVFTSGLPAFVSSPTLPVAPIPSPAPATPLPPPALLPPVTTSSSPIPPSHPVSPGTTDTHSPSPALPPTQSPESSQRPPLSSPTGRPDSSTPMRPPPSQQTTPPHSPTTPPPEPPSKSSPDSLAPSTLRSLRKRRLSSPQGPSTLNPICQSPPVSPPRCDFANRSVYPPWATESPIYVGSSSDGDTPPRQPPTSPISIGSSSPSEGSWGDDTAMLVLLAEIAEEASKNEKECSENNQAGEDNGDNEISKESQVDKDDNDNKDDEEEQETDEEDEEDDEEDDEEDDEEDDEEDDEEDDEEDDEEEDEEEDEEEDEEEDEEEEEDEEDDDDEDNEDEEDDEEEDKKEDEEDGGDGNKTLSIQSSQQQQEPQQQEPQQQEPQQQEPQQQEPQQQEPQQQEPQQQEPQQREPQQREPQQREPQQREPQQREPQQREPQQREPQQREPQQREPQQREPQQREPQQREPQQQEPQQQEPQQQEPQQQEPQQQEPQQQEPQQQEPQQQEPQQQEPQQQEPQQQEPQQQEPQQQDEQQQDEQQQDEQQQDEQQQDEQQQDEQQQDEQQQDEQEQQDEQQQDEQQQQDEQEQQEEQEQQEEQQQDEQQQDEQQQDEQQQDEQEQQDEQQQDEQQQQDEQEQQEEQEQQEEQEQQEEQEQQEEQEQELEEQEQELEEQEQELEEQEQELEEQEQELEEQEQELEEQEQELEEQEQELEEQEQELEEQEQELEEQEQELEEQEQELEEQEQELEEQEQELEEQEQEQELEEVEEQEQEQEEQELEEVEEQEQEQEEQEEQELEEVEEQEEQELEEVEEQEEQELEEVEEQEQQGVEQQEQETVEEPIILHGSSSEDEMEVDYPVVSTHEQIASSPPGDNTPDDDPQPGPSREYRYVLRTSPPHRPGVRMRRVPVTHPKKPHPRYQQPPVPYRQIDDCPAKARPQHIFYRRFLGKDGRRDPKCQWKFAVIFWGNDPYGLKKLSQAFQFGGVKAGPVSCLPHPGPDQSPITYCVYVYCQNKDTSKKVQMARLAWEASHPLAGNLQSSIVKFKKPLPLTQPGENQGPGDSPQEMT
B2AR ag – beta2AR agonists driving receptor internalization, primary screen, cell-based, FAP fluorogen, flow cytometry. Am2.2-beta2AR cells; reference of the scale not given here. response, % (no concentration beside the values). 0.43% of 340,000 active. AID 504454, 2011;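 active = response above a set limit, near 3 SD of response in nonfluorescent compounds, cut at about 42% in these data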;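 note: stock transfer was 100 nL into about 11 µL; a reference agonist was the positive control; negative values mostly stem from fluorescent compounds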
E coli growth – E. coli growth inhibition, primary screen, OD600 | 0.21% of 330,000 active | OD600 absorbance (concentration not given with the values) | Escherichia coli growth, 23 h; hits give low values;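 active = OD600 absorbance below the run mean of sample wells minus 3.6 SD, in any replicate, cut at about 0.56 in these data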;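 note: stock transfer was 300 nL into about 60 µL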
Vif A3G – inhibitors of Vif binding to APOBEC3G peptide, primary screen, biochemical, TR-FRET, GST-Vif 1-94, biotin-A3G peptide, dose response retest (AID 1117319) | Virion infectivity factor (Human immunodeficiency virus type 1 group M subtype B (isolate … | TR-FRET GST-Vif / biotin-A3G peptide binding; higher % means a stronger effect; test concentration not given here; strong numbers were not always called active | inhibition, %; hits with a dose series show IC50 in µM | 0.57% of 260,000 active;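 active = above the screen mean plus three standard deviations and confirmed in dose response; inconclusive = results disagree or hit not tested in dose response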;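 note: Vif residues 1-94 fused to GST binding biotinylated APOBEC3G peptide 110-148; 0% = full assay without inhibitor and 100% = GST in place of GST-Vif; retest series ran down from 100 µM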
Starred values were filed as active, the others as inactive; ? = inconclusive; . = no result given.

Each structure is followed by: UCH37 inh | HNF4A DNA FP | A1 inh | LANA-H2A inh | B2AR ag | E coli growth | Vif A3G
1. CCN(CC(=O)Nc1ccc(NC(C)=O)cc1)C(=O)c1ccc(N2CCCC2)c([N+](=O)[O-])c1
    8.0 | -0.4 | . | . | -1 | 0.68 | -8%
2. COc1cc(OC)c(C2=NOC(C(=O)NCc3cccnc3)C2)cc1Cl (stereo unspecified)
    2.1 | 1.7 | -0.1 | -5.5 | -10 | 0.71 | .
3. O=C(NC1CC1)c1cccc(NC(=O)C2CCN(S(=O)(=O)c3cccc(C(F)(F)F)c3)CC2)c1
    6.0 | -2.6 | . | . | -5 | 0.71 | .
4. COc1cccc(N(CC(=O)NCCSCc2ccc(C)cc2)S(C)(=O)=O)c1
    0.4 | -1.5 | -0.4 | -4.8 | 1 | 0.66 | .
5. COc1ccc(/C(C)=N/N2CCCCC2)c(O)c1
    . | -0.3 | -1.6 | 2.9 | 0 | . | -1%
6. Nc1ncnc2c1ncn2[C@@H]1O[C@H](CNS(=O)(=O)C2CC2)[C@@H](O)[C@H]1O
    -0.6 | 0.7 | . | . | -9 | 0.68 | -4%
7. CC#CC(=O)N1CCCC(C(=O)c2ccc(SC)cc2)C1 (stereo unspecified)
    1.3 | 0.5 | 0.2 | -0.7 | -3 | 0.64 | 2%
8. Cc1ccc(N2C(=O)C3ON(c4ccccc4)C(c4ccncc4)C3C2=O)c(C)c1 (stereo unspecified)
    3.2 | 0.8 | 0.8 | 2.2 | 3 | 0.7 | -8%
9. Cn1c(C(O)c2ccccc2)nc(Cl)c1Cl (stereo unspecified)
    1.7 | -1.6 | 1.4 | -2.2 | 0 | 0.67 | 3%
10. CCNC(=O)Cn1cc(C(F)(F)F)cc(Cl)c1=O
    1.1 | 4.7 | 1.4 | -1.2 | -1 | 0.73 | .
11. CCN(c1ccccc1)S(=O)(=O)c1ccc(Cl)c(NC(=O)COC(=O)c2ccc(Cl)c(N)c2)c1
    -22 | 2.4 | -0.3 | -0.3 | -5 | 0.63 | -36%
12. CCN1C(=O)C2(C(C(=O)c3ccc(C)o3)=C(O)C(=O)N2CCCN2CCOCC2)c2ccccc21 (stereo unspecified)
    46* | 0.6 | 0.4 | 3.1 | -3 | 0.74 | ?
13. c1ccc(CSc2nnc3c4ccccc4c4ccccc4c3n2)cc1
    . | . | -0.3 | -4.0 | . | . | -14%
14. O=C(Nc1cccc(Cl)c1)Nc1ccccc1C(=O)O
    . | 0.8 | -8.0 | -3.7 | 12 | . | -2%
15. O=C(Nc1ccn(Cc2ccccc2F)n1)c1ccc(COc2ccc(Cl)cc2Cl)o1
    4.8 | 0.7 | -0.6 | 3.3 | 8 | 0.75 | 6%
16. CCOC(=O)c1ccc(NC(=O)CNC(=O)C2CCCCC2)cc1
    4.0 | -3.9 | 1.3 | -2.1 | -3 | 0.66 | 0%
17. CSc1nc(C)cc(OCC(=O)N2CCOCC2)n1
    2.2 | 1.3 | -0.3 | 0.6 | -9 | 0.73 | -10%
18. O=C(Nc1cccnc1)C1CCCN(c2ncnc3c2nc2n3CCCCC2)C1 (stereo unspecified)
    4.5 | 3.6 | 1.2 | 2.6 | -6 | 0.68 | 5%
19. CCOC(=O)c1[nH]c2ccccc2c1NC(=O)Nc1ccc(OC)cc1
    -3.5 | 2.9 | 0.2 | 2.1 | 0 | 0.72 | 26%
20. CN(Cc1ccccc1)C(=O)c1cccc(NC(=O)Cc2ccc(NC(=O)C3CCN(S(=O)(=O)c4cccc([N+](=O)[O-])c4)CC3)cc2)c1
    2.8 | 0.6 | . | . | 1 | 0.72 | -3%
21. O=C(Nc1ccccc1Oc1ccccc1)c1cccs1
    1.8 | -0.9 | 0.0 | 3.0 | -5 | 0.67 | -5%
22. COc1ccc(OC)c(S(=O)(=O)N2CCC(C(=O)NC3CC3)CC2)c1
    2.4 | 1.2 | 1.7 | -0.4 | -2 | 0.71 | 3%
23. COC(=O)c1ccccc1NC(=O)C(CCS(C)(=O)=O)NC(C)=O (stereo unspecified)
    1.3 | 2.0 | 0.6 | 0.9 | 3 | 0.69 | -1%
24. CCOC(=O)c1ccc2ncc(C(=O)OCC)c(NCCCN3CCOCC3)c2c1
    -8.8 | -1.1 | 0.1 | 5.6 | -23 | 0.66 | 18%
25. CC(=O)Nc1ccc(C(=O)N/N=C(\C)CC(=O)Nc2ccc(OCc3ccccc3)cc2)cc1
    . | 0.6 | -1.6 | 0.2 | -18 | . | .
26. CCCCn1c(N)c(N(CC)C(=O)c2c(C)noc2C)c(=O)[nH]c1=O
    0.5 | -6.4 | 2.1 | 8.6 | 7 | 0.63 | 3%
27. CCOC(=O)NC(NC(=S)Nc1ccc(OC)cc1)C(Cl)(Cl)Cl (stereo unspecified)
    -1.4 | -3.9 | 2.1 | 0.1 | 2 | 0.73 | -7%
28. COc1ccc(NC(=O)CCn2c(=O)c3cccn3c3ccccc32)c(OC)c1
    -1.7 | 1.5 | 0.3 | -5.3 | 1 | 0.67 | .
29. Nc1cccc(CCc2nc3ccccc3[nH]2)c1
    2.0 | 4.8 | 0.5 | 2.5 | 8 | 0.68 | -1%
30. COc1ccc(/C=C2\CCC(C3CCCC3)C2=O)cc1OC (stereo unspecified)
    0.7 | -2.2 | -0.4 | 3.6 | 0 | 0.7 | -1%

Numbers 1–2 from above:
Each structure is followed by: UCH37 inh | HNF4A DNA FP | A1 inh | LANA-H2A inh | B2AR ag | E coli growth | Vif A3G
1. CCN(CC(=O)Nc1ccc(NC(C)=O)cc1)C(=O)c1ccc(N2CCCC2)c([N+](=O)[O-])c1
    8.0 | -0.4 | . | . | -1 | 0.68 | -8%
2. COc1cc(OC)c(C2=NOC(C(=O)NCc3cccnc3)C2)cc1Cl (stereo unspecified)
    2.1 | 1.7 | -0.1 | -5.5 | -10 | 0.71 | .

(continued)
Each structure is followed by: UCH37 inh | HNF4A DNA FP | A1 inh | LANA-H2A inh | B2AR ag | E coli growth | Vif A3G
31. CCOc1ccc(NC(=O)CN2CCN(C3c4ccccc4-c4ccccc43)CC2)cc1
    -0.3 | 1.8 | 0.0 | 0.8 | 0 | 0.75 | -6%
32. CCN(CC(=O)NCc1ccc(F)cc1)C(=O)CN1CCN(c2ccccc2OC)CC1
    1.6 | -1.0 | -0.1 | 4.1 | -2 | 0.68 | .
33. Cc1ccc(Cn2c(C3CCCN3c3nc(-c4ccc(F)cc4)cs3)nc3cc(C(F)(F)F)ccc32)cc1 (stereo unspecified)
    -0.2 | 1.2 | 0.5 | -3.9 | 0 | 0.69 | .
34. NC(=O)c1ccc(=O)n(C2OC(CO)C(O)C2O)c1 (stereo unspecified)
    4.5 | -0.1 | . | . | 6 | 0.7 | 2%
35. COc1ccc(OC)c(NC(=O)COc2ccc(Br)cc2)c1
    -1.0 | 4.6 | -0.5 | 1.9 | 68* | 0.72 | .
36. Cc1ccc2nc(C3CCCN(C(=S)Nc4cccc(C)c4C)C3)[nH]c2c1 (stereo unspecified)
    2.4 | 1.8 | 0.3 | 5.5 | -4 | 0.69 | -10%
37. CCn1nc(C)c(CNC(=O)Nc2ccc3c(c2)OCO3)c1C
    -0.5 | -0.7 | -3.6 | -3.3 | 14 | 0.71 | 24%
38. COC(=O)NCc1ccc(Cl)c(Cl)c1
    -2.2 | 0.0 | 0.3 | 5.3 | 10 | . | 0%
39. CCC(CO)Oc1cc(NCc2cccc(C(F)(F)F)c2)c2ncn(C(C)C)c2c1 (stereo unspecified)
    5.4 | -1.2 | 0.6 | 5.2 | -2 | 0.69 | .
40. COc1cc(C2NCC(c3ccc(Cl)cc3Cl)c3c2[nH]c2ccccc32)cc(OC)c1OC (stereo unspecified)
    -2.7 | -2.5 | -0.2 | 2.0 | 2 | 0.7 | -2%
41. O=C(/C=C/c1ccc2ccccc2n1)c1cc(Cl)ccc1O
    -2.2 | 27 | -0.3 | -12 | 20 | 0.68 | 9%
42. CC1CC(C)CN(c2nc3c(c(=O)n(C)c(=O)n3C)n2C)C1 (stereo unspecified)
    0.3 | 1.5 | 0.0 | -6.3 | -2 | 0.69 | 20%
43. C/C(=N/N=C(/N)SCc1ccccc1)C(C)(C)C
    . | -2.4 | 0.4 | 3.3 | -2 | . | -7%
44. CC(C)c1ccc2[nH]c3c(c2c1)CCCC3=O
    -17 | -0.7 | 0.1 | 2.0 | -1 | 0.7 | 6%
45. C=CCn1c(=N)n(CC(=O)O)c2ccccc21
    2.1 | 3.3 | -0.3 | -1.1 | 2 | 0.71 | 6%
46. CCOC(=O)/C(=N/Nc1ccccc1)c1csc(Nc2ccccc2)n1
    . | 1.5 | -0.7 | -9.9 | 15 | . | 0%
47. CC1CC(C)CN(CCCOc2ccccc2[N+](=O)[O-])C1 (stereo unspecified)
    3.6 | -0.3 | 0.2 | -1.4 | -3 | 0.67 | 3%
48. Nc1nc(N)c(C=Nc2ccc(Br)cc2)c(Nc2ccc(Br)cc2)n1
    . | 3.2 | 0.9 | -1.8 | 26 | . | 8%
49. COC(=O)[C@@H](Cc1ccccc1)NC(=O)NCCc1ccccc1
    3.7 | -1.9 | 0.1 | -0.1 | 8 | 0.65 | -3%
50. Cc1ccc(/C=N/Nc2ccc3c(C(F)(F)F)cc(C(F)(F)F)nc3n2)cc1
    . | 3.0 | 1.0 | -2.6 | -2 | . | -2%
51. COc1ccc(Cl)cc1NC(=O)c1cccc(-n2cnnn2)c1
    -5.5 | 2.5 | . | . | -21 | 0.71 | -6%
52. CCOC(=O)C1=C(C)N(CCCC(=O)O)C(=O)NC1c1cccc(OC)c1 (stereo unspecified)
    3.5 | . | 0.9 | 2.3 | . | 0.68 | .
53. O=C(/C=C/c1nc2ccccc2s1)N1CCCCCC1
    -3.6 | -2.9 | -1.0 | 2.4 | -9 | 0.68 | 5%
54. CN(C)C(=O)COc1ncnc2scc(-c3ccc(F)cc3)c12
    2.7 | -1.4 | -0.1 | 3.2 | 2 | 0.7 | .
55. Cc1ccc(OCCN2CCN(CC(O)Cn3c4ccccc4c4ccccc43)CC2)cc1 (stereo unspecified)
    0.4 | . | 0.5 | 0.5 | . | 0.65 | .
56. CCC(=O)N(CC(=O)Nc1sc(C)c(C)c1C(N)=O)Cc1ccc(F)cc1
    1.6 | 1.5 | -0.2 | 4.8 | -9 | 0.74 | 0%
57. O=S(=O)(NCc1csc(-c2cccs2)n1)c1ccccc1
    -5.6 | 2.0 | 1.3 | -1.7 | -9 | 0.63 | 4%
58. CCN(CC)S(=O)(=O)c1ccc(N2CCOCC2)c(NC(=O)COc2ccccc2C#N)c1
    1.4 | -1.4 | 0.1 | 1.8 | 1 | 0.63 | .
59. CN1C(=O)[C@@H]2[C@H](C1=O)[C@@H]1C(=O)Nc3ccccc3C(=O)N1[C@@H]2c1ccc(F)cc1
    0.9 | -1.0 | 0.5 | 0.5 | 0 | . | .
60. COc1ccc(CS(=O)(=O)CC(C)(O)c2ccccc2Cl)cc1 (stereo unspecified)
    . | -6.8 | 0.1 | 0.6 | 9 | . | .
61. Cc1ccc(NC(=O)C(Nc2ccccc2)c2ccccc2)cc1 (stereo unspecified)
    2.2 | -0.3 | 0.5 | 0.8 | 6 | 0.65 | .
62. Cc1ccccc1S(=O)(=O)Nc1ncnc2scc(-c3ccccc3)c12
    0.8 | 3.5 | 0.8 | -12 | 13 | 0.71 | ?
63. O=C(OCc1ccc(F)cc1)c1cc(S(=O)(=O)N2CCCCC2)ccc1N1CCOCC1
    0.1 | 3.2 | 0.3 | 0.5 | -10 | 0.7 | -1%

Source: PubChem (several laboratories)
